Screens deposited in PubChem BioAssay by several laboratories.
PABP polyA inh: blocks human PABP binding to poly(A) RNA; fluorescence polarization; 1% of 290,000 active; inhibition, % at 35 µM;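 active = 50% or more with normal probe brightness, or confirmed in later tests; inconclusive = above 50% with abnormal brightness, or retests that disagree; inactive = below 50% or failed in later tests; about a fifth of its hits are not listed in these tables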;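 note: calls also rest on retests at 20 µM and on dose response follow-up; controls were probe without protein and protein plus probe with vehicle; some compounds called inactive have numbers as strong as hits; many hits fall short of the cut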
Target sequence (P11940 whole entry, looked up): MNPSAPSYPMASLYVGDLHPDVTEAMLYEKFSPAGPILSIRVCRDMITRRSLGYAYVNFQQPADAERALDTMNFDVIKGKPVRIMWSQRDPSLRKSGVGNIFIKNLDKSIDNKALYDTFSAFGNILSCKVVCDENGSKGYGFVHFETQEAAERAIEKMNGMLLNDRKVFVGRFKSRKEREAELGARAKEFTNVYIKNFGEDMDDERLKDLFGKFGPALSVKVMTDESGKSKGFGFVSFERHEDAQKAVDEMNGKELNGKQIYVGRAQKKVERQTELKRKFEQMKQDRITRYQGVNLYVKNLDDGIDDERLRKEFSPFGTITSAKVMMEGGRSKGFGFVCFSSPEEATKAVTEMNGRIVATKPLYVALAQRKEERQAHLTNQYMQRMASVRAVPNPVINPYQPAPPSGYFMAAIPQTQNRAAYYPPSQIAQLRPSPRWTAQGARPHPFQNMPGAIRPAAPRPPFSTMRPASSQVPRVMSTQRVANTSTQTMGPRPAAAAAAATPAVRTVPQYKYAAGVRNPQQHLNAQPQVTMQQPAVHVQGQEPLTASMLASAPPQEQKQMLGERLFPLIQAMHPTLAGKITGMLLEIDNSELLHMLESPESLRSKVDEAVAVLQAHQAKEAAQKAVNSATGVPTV
Rce1 inhib: blocks yeast Ras-converting enzyme; 0.27% of 290,000 active; yeast membranes, quenched prenylated peptide cleavage fluorescence; AID 2563; calls only; Q03530;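 active = fall in fluorescence gain of 50% or more versus controls, with final raw signal at or below 3038400; inconclusive = same 50% fall but final raw signal above 3038400; inactive = fall in fluorescence gain under 50%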;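 note: plate controls were neutral control wells for no effect and wells lacking membranes for full effect; tested at 10 µM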
UUG fidelity: yeast start codon fidelity modulation; S. cerevisiae UUG-firefly luciferase reporter, luminescence/redox ratio; activity score, % at 18.7 µM; 0.13% of 350,000 active;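 active = replicate mean at a twofold rise or more, about +100% in these data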;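 note: firefly luciferase made from a UUG start codon reports start codon fidelity; reporter light over untreated wells divided by growth signal over untreated wells; some hits fall short of that in this replicate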
eIF4H inh: inhibitors of RNA binding by human eIF4H; Q15056; eIF4H fluorescence polarization binding assay; inhibition, % at 35 µM; 0.94% of 290,000 active; AID 2012;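 active = 50% or more with normal probe brightness, or confirmed in later tests; inconclusive = above 50% with abnormal brightness, or retests that disagree; inactive = below 50% or failed in later tests; about a fifth of its hits are not listed in these tables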;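 note: calls also rest on retests at 20 µM and on dose response follow-up; 0% = protein and probe with vehicle and 100% = probe without protein; strong numbers were not always called active; many hits fall short of the cut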
MT1-MMP act inh: inhibitors of human MT1-MMP activation | P50281 | HT1080 RFP-PRO-GFP cells, GFP/RFP ratio fluorescence, overnight; percent of plate control window, DMSO zero | GFP/RFP ratio change, % at 20 µM | 0.061% of 360,000 active | AID 651647;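 active = GFP/RFP ratio change of at least 30% with cell ATP level not reduced by more than half and red fluorescence within 50% of control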; note: strong numbers were not always called active
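Assay system: HT1080 RFP-PRO-GFP cells | Dosing: 20 µM single dose, 1% DMSO | Incubation: Cells overnight before dosing, compound overnight, 37 °C, 5% CO2 | Evaluation: GFP/RFP fluorescence ratio | Control set: DMSO-only wells and HT1080 RFP-L50D-GFP cell wells as references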
CSC inhib: blocks cancer stem cells; inhibition, % at 7.5 µM; cancer stem cell-like cells viability, luminescence; 1.1% of 300,000 active;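 active = mean at 75% or more and at least half the replicates too; inconclusive = mean and replicates disagree; tested in HMLE shEcad cells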;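 note: 0% = median of negative and 100% = median of positive control wells; the first replicate is given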
Env fusion inh: inhibitors of HIV Env-mediated cell fusion | AID 651610 | HeLa-JRFL Env/CEM21 cell fusion, luciferase | 1.1% of 360,000 active | inhibition, % at 12.3 µM;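 active = mean replicate inhibition score of at least 50 and every replicate individually at or above 50; inconclusive = only one of the two criteria met; inactive = mean below 50 and not all replicates reaching 50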;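 note: 0% = plate neutral controls and 100% = maraviroc near 300 nM; one replicate is shown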
eIF4H inh retest: further read-out of eIF4H inh, marked with its call; inhibition, %; compound at 20 µM; confirmation average;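 mean of two retest wells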
PABP polyA inh retest: recorded beside PABP polyA inh, whose call it bears; inhibition, %; compound at 20 µM; confirmation repeats;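 mean of two retest wells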
MT1-MMP act inh RFP: further read-out of MT1-MMP act inh, marked with its call; RFP signal change, %; measured here: RFP expression control read;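 0 = vehicle wells; hits needed this value within 50% of zero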
Starred values were filed as active, the others as inactive; i = inactive; ? = inconclusive; / = not tested or not shown; + = active, no number; & = joins results of further samples.

SMILES	PABP polyA inh	Rce1 inhib	UUG fidelity	eIF4H inh	MT1-MMP act inh	MT1-MMP act inh RFP	CSC inhib	Env fusion inh	others
CCOCCCN(C(=O)CCC(=O)Nc1cc(C)on1)C(C(=O)NC(C)(C)C)c1ccccc1Cl (stereo unspecified)	10.6	i	-1.7	-5.5	-0.8	2.4	/	-0.3
CC1(C(=O)NC2CCCC2)CCC(=O)N1Cc1ccccc1Cl (stereo unspecified)	14.2	i	-14.5	-6.8	-4.3	-6.6	-6.2	-54.8
CCCc1cc(C(N)=O)c(NC(=O)C2CCCO2)s1 (stereo unspecified)	12.6	i	7.4	18.9	-3.8	8.0	-7.3	-10.3
CC(C)Cn1c(=O)[nH]c2ccccc21	1.0	i	-2.0	2.1	-1.0	6.6	12.6	/
O=C(O)CCCCCN1C(=O)C(O)=C(C(=O)/C=C/c2ccccc2)C1c1cccc([N+](=O)[O-])c1 (stereo unspecified)	-13.6	i	4.0	8.2	-0.7	1.3	-16.0	2.4
Cc1ccc(C(=O)N/N=C\c2cc3c(cc2Br)OCO3)cn1	-3.9	i	0.3	-3.8	5.4	2.5	-11.2	-13.6
CS(=O)(=O)c1ccc(Cl)c(NC(=O)c2ccc3ccccc3c2)c1	3.2	i	-48.4	5.2	2.2	-1.1	-5.6	-82.0
O=C(O)c1cccc(N=C2NC(=O)C(CO)(CO)S2)c1	4.6	i	-23.5	5.5	-6.2	-1.1	-8.2	3.9
COc1ccc(N2CCN(S(=O)(=O)CCNC(=O)COc3cccc(OC)c3)CC2)cc1	-1.2	i	-10.6	1.5	-0.7	-0.6	-10.1	-0.7
CC1(Cc2cccc(C#N)c2)C(=O)Nc2c(Cl)cccc21 (stereo unspecified)	/	/	-17.2	/	1.4	0.6	/	9.2
COc1cc(OC)c2c3c(c(C4CCCCC4)nc2c1)CCC3	/	i	-1.7	/	6.6	0.4	-20.3	-1.7
CS(=O)(=O)N(CC(=O)N1CCOCC1)c1cccc([N+](=O)[O-])c1	0.7	i	-8.2	5.5	0.0	2.8	-2.8	-2.2
CCC1CN(C(=O)N2CCC(C(=O)NCc3ccco3)CC2)c2ccccc2O1 (stereo unspecified)	-6.1	i	-10.7	-3.1	1.7	0.4	-6.1	12.1
COc1cccc(CNn2c(-c3cccc(C)c3)nc3ccccc3c2=O)c1	41.4	i	16.1	-0.5	-4.9	-10.8	2.2	42.9
O=C(OCCOc1ccccc1)c1cc(S(=O)(=O)N2CCOCC2)c(Cl)cc1Cl	/	/	-7.2	/	2.4	7.3	/	6.3
NS(=O)(=O)c1cnccc1Nc1cccc(F)c1	/	i	-20.5	/	1.2	1.9	-19.5	7.8
CCOC(=O)c1cc(-c2ccccc2)n(Cc2cc(CC)no2)n1	/	i	-17.6	/	0.3	1.5	-7.3	-28.2
Cc1cccc(-c2n[nH]c(=S)n2/N=C/c2ccc(C)o2)c1	-2.2	i	/	-0.8	3.8	0.4	-15.2	-6.2
Brc1ccc2nc(C3CCCCC3)c(Cc3ccsc3)n2c1	/	/	14.8	/	-7.7	-0.5	/	-179.1
COc1cc(C(=O)NCCSc2ccccc2)cc(OC)c1OC	-1.7	i	-3.0	-12.7	2.9	-3.3	4.2	-1.5
CC(=O)C1=C(C)NC(SCc2cccc3ccccc23)=C(C#N)C1c1ccco1 (stereo unspecified)	0.7	i	/	38.0	-9.9	-4.6	25.4	8.1
O=C(NCc1ccccn1)c1c(O)c2c([nH]c1=O)CCCC2	-8.4	i	-18.3	-7.1	3.6	-1.7	/	/
Cc1cccc(NC(=O)c2ccc3ccccc3n2)c1C	4.5	i	-15.9	-12.9	1.1	3.4	24.3	/
CC(C)CCNC(=O)CCNS(=O)(=O)c1ccc(Cl)cc1	-4.4	i	-5.4	-1.3	-2.9	2.7	-6.7	2.9
CC(C)[C@@H](CSc1ccccc1)N1CCN(Cc2ccccc2)CCC1=O	0.4	i	-12.6	-8.8	-5.9	1.9	-11.8	29.6
O=C(NC1CCCCC1)c1ccc(S(=O)(=O)N2CCOCC2)cc1	-4.5	i	-13.1	0.2	1.9	2.2	-5.6	/
Cc1ccc(SCC(=O)OCC(=O)NCCC2=CCCCC2)cc1	/	i	-0.9	/	0.6	1.8	8.9	2.3
O=Nc1c(O)[nH]c2ccc(F)cc12	6.3	i	/	7.2	-2.9	1.0	/	-29.3
COc1ccc(/C=N/N(C)c2cc(=O)n(C)c(=O)[nH]2)cc1OC	4.6	/	-15.6	-1.2	5.8	6.5	0.2	17.8
Cc1cc(C)n(C(=O)CNC(=O)c2cccs2)n1	-9.5	i	-9.6	-4.4	-1.9	2.6	-4.6	-24.8

Of the compounds above, these contain a COOH group.
SMILES	PABP polyA inh	Rce1 inhib	UUG fidelity	eIF4H inh	MT1-MMP act inh	MT1-MMP act inh RFP	CSC inhib	Env fusion inh	others
O=C(O)CCCCCN1C(=O)C(O)=C(C(=O)/C=C/c2ccccc2)C1c1cccc([N+](=O)[O-])c1 (stereo unspecified)	-13.6	i	4.0	8.2	-0.7	1.3	-16.0	2.4
O=C(O)c1cccc(N=C2NC(=O)C(CO)(CO)S2)c1	4.6	i	-23.5	5.5	-6.2	-1.1	-8.2	3.9

The results go on.
SMILES	PABP polyA inh	Rce1 inhib	UUG fidelity	eIF4H inh	MT1-MMP act inh	MT1-MMP act inh RFP	CSC inhib	Env fusion inh	others
O=C(Nc1ccc(NC(=O)C2CC2)nc1)c1ccco1	-2.0	i	-13.7	-2.6	-4.1	0.1	-3.4	-70.6
O=C(COc1cc(Cl)c(Cl)cc1Cl)NC(=O)NC1CCCC1	-9.1	i	-9.4	-4.7	0.3	-2.2	-4.0	/
Cc1c(Cl)cccc1NC(=O)CC(C(=O)O)C1CCCO1 (stereo unspecified)	-1.1	i	-16.2	-8.5	1.4	0.0	-8.4	-51.8
CCOC(=O)c1c(NC(=O)CSc2nnc(-c3ccc(C)cc3)o2)sc(C(C)=O)c1C	-11.5	/	0.3	3.3	10.9	-7.8	6.0	-0.2
COC(=O)c1sc(S(=O)(=O)N2CC(C)OC(C)C2)c(C(=O)OC)c1C (stereo unspecified)	/	/	-2.5	/	-0.3	1.8	/	-6.6
O=C(Nc1nnc(S(=O)(=O)N2CCCCCC2)s1)c1ccccc1F	-6.2	i	11.4	-0.1	2.6	-6.6	9.7	1.4
Cc1ccc(C(C)C)c(Oc2nnnn2-c2ccccc2)c1	0.9	i	-18.0	-3.5	0.7	-5.2	47.7	10.6
COC(=O)c1cc(S(=O)(=O)N2CCN(c3cccc(C)c3)C(C)C2)c[nH]1 (stereo unspecified)	15.6	i	/	-3.0	0.5	2.5	-5.0	-5.7
Cc1sc2nc(COC(=O)c3ccc(N4CCCC4)c([N+](=O)[O-])c3)[nH]c(=O)c2c1C	1.7*	i	/	?	-33.2	-0.7	-10.9	1.0	PABP polyA inh retest=108.9*
CCN(CC)C(=O)CSc1n[nH]c(=O)n1CCc1ccccc1	0.5	i	-8.3	-6.3	0.4	3.9	-14.7	-7.0
CCCCOc1ccc(C(=O)NCC(=O)NC(C)CCc2ccccc2)cc1 (stereo unspecified)	-1.7	i	-3.0	15.1	-2.0	-1.4	19.7	6.1
CC(C)CNC(=O)COCc1cc(-c2ccc3c(c2)OCO3)on1	3.7	i	-9.6	11.4	0.6	-1.4	4.5	-35.2
COc1ccc(OC)c(S(=O)(=O)N2c3cc(F)ccc3CCC2C)c1 (stereo unspecified)	1.8	i	-8.7	-11.0	7.3	0.2	11.4	/
COc1ccc(-c2csc3nc(C)nc(N4CCN(C(C)=O)CC4)c23)cc1OC	6.4	/	-9.3	-3.0	1.3	3.6	3.9	11.0
O=C(COC(=O)Cc1cccs1)Nc1cccc(S(=O)(=O)N2CCOCC2)c1	/	i	/	/	0.4	1.0	-9.5	0.0
COc1ccc(C2Nc3ccccc3C(=O)N2O)cc1CN1CCOCC1 (stereo unspecified)	2.4	i	/	4.8	2.8	6.2	0.5	-10.1
O=C(O)CSC(=S)N1CCCC1	2.5	i	6.1	4.8	4.3	1.7	-10.3	-8.3
O=C1CC(C(=O)N2CCc3ccccc32)CN1c1cccc(C(F)(F)F)c1 (stereo unspecified)	/	/	-12.0	/	-3.1	-0.3	/	9.7
CCCN(CCC)CCNC(=O)c1cc2c(=O)n(C)c3ccccc3c2n1C	-11.1	i	-3.4	-15.5	0.7	-0.7	4.2	-30.8
COc1ccc(Nc2nc(-c3sc(NC(C)=O)nc3C)cs2)cc1	12.1	i	/	3.2	/	/	/	/
COc1ccc(-c2cc(C(F)(F)F)nc(SCC(=O)N(C)Cc3cn(C)nc3C)n2)cc1OC	3.0	+	/	2.6	5.7	0.1	-5.8	/
COc1ccccc1N1CCN(C(=O)c2sc3ncnc(N4CCN(c5ccccn5)CC4)c3c2C)CC1	7.8	i	0.2	2.0	1.7	-8.1	/	/
COc1ccc(CSc2nnnn2-c2ccc(O)cc2)cc1F	2.0	i	-2.2	-12.0	-2.0	-7.1	-7.4	9.8
COc1ccc(C(=O)O/N=C(\N)c2ccccn2)c(OC)c1	-6.1	/	/	-10.9	9.0	6.8	6.5	19.7
c1ccc(CNc2nc(-c3cccs3)nc3ccccc23)cc1	9.9	i	/	-2.4	6.0	0.9	/	-18.2
CSc1nsc(SCC(=O)Nc2nncs2)n1	14.8	i	/	-5.1	-4.2	-0.4	-3.9	-3.2
Cc1ccc(S(=O)(=O)N(C)C[C@H]2OCc3cnnn3CCCC(=O)N([C@@H](C)CO)C[C@H]2C)cc1	/	/	9.6&-2.4	/	2.9	7.8	/	11.2
CN(C)CCN(C(=O)C1CCCCC1)c1nc2cc3c(cc2s1)OCCO3	/	/	-4.1	/	-2.7	1.2	/	-9.9
CCOC(=O)c1c(N)sc(=S)c2c1CCC2	71.6*	i	-10.0	33.0*	-0.1	4.8	10.0	-136.5	eIF4H inh retest=91.4*;PABP polyA inh retest=63.7*
Cc1ccc(S(=O)(=O)Nc2ccccc2C(=O)N2CCOCC2)cc1	0.2	i	-5.9	-14.0	-0.7	0.9	7.7	4.5
Cc1ccccc1N1C(=O)c2cccc3c(N(C)CCO)ccc(c23)C1=O	?	i	23.5	?	-330.2	-6.4	-7.6	/
CC(C)(C)OC(=O)C[C@@H]1C/C=C\C[C@H](CC(=O)N(CCO)Cc2ccccc2)C(=O)NC[C@H](c2ccccc2)OC1=O	/	/	2.4	/	-0.5	-2.3	-9.9	2.7
COc1cc(/C=N/NC(=O)COc2ccc([N+](=O)[O-])cc2)ccc1OCC(=O)N1CCOCC1	-5.1	i	-10.3	2.5	-0.8	-1.0	/	-4.2
CCC(C(=O)NCCC1=CCCCC1)n1nc(C)c2c(C)n(-c3ccccc3)nc2c1=O (stereo unspecified)	-5.2	i	-7.2	5.5	0.6	-7.2	-1.7	13.3
Fc1cccc(Cl)c1Cn1nnc(-c2ccc(N3CCOCC3)cc2)n1	5.4	i	-5.4	12.5	-0.8	4.5	0.7	-99.3
CCOc1ccc2[nH]c(=O)c(CN(Cc3nnnn3CCc3ccccc3)CC3CCCO3)cc2c1 (stereo unspecified)	3.6	i	3.4	14.5	-0.9	-1.5	-3.6	/
CC1CCN(S(=O)(=O)c2ccc(Br)s2)CC1	-5.0	i	-10.1	-7.6	-5.7	-2.1	/	/
COc1ccc(N/C(=N\c2nc(C)cc(C)n2)NC(=O)C(C)C)cc1OC	-3.5	i	-44.7	-5.3	1.2	-0.4	-17.8	/
